AF4-AF9 inh – inhibitors of AF4 peptide binding to AF9, primary screen, biochemical, AlphaScreen, biotin-AF4 peptide, FLAG-AF9, single point. Protein AF-9 (Homo sapiens), P42568. inhibition, % at 10 µM. 350,000 compounds, 0.47% hits. AID 651704, 2012;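 active means every replicate reaching a set inhibition limit, whatever the replicate mean, cut at about 25% in these data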;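 further: 0% = plate neutral control median and 100% = total signal loss; the record names both 10 and 1 µM as test concentration; the first replicate is given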
Target sequence (P42568 whole entry, looked up): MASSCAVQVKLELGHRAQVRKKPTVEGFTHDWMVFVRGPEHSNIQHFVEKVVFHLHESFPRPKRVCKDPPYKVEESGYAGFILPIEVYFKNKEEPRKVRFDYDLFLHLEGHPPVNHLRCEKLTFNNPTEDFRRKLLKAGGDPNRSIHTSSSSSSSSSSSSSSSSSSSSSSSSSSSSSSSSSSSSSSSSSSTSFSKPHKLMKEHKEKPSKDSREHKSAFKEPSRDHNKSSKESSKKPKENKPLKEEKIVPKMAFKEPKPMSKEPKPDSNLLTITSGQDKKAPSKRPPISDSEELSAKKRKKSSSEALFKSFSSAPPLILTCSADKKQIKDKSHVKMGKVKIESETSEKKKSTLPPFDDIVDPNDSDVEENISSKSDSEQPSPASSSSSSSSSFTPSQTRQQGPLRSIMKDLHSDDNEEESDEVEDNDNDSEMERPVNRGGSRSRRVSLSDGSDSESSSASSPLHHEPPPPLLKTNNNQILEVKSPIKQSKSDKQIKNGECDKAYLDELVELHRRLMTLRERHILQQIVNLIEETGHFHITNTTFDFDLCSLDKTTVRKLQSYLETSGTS
rRNA inh HTS – reduced GFP signal of wild-type E. coli, primary screen, bacterial rRNA inhibitor project, GFP/RFP fluorescence, OD600, single point; 350,000 compounds, 1.6% hits; AID 720706, 2013; GFP signal change (wild-type ribosome), % (test concentration not listed); E. coli WT GFP vs humanized-ribosome RFP mutants, 24 h; active compounds read low; DMSO median 0, no signal -100;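 active means significant combined selectivity score with lowered wild-type GFP, culture density cut under 30%, mutant RFP and density less affected; inactive means any of these conditions unmet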; further: one replicate is shown; some compounds called inactive have numbers as strong as hits
rRNA inh HTS OD600 – second read-out of rRNA inh HTS, no call of its own (marks repeat the call); OD600 change, %; measured here: OD600 growth;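 optical density of the mix in the first replicate; 0 = DMSO median and -100 = no signal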
rRNA inh HTS RFP – second read-out of rRNA inh HTS, no call of its own (marks repeat the call); RFP signal change, %; measured here: RFP humanized mutant strains;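 first replicate; 0 = DMSO median and -100 = no signal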
Starred values were filed as active, the others as inactive; i = inactive; . = not tested or not shown; & = joins results of further samples. An excerpt, so the mix of outcomes need not match the whole.

The line under a structure holds: AF4-AF9 inh	rRNA inh HTS	rRNA inh HTS OD600	rRNA inh HTS RFP
COCC(=O)N1[C@H](CO)[C@H](c2ccccc2C2=CCCCC2)[C@@H]1C#N
→ -0.5	-5	3	1.7
COc1ccc2c3c([nH]c2c1)[C@@H](CO)N(C(=O)C1CCCCC1)CC31CN(Cc2nccs2)C1
→ 15	-5	-8	3.7
C[C@H]1CN([C@@H](C)CO)C(=O)c2cccc(NC(=O)NC3CCCCC3)c2O[C@H]1CN(C)S(=O)(=O)c1ccc(F)cc1
→ 1.2	-5	-7	1.4
COCC(=O)N1CC(=O)N2[C@@H](CO)[C@H](c3ccc(-c4ccccc4)cc3)[C@@H]2C1
→ -3.0	0	-10	4.1
CCC(=O)N1[C@@H](CO)[C@@H](c2ccccc2)C12CN(C(=O)NC1CCCC1)C2
→ -14	-3	0	-3.0
C[C@H]1CCCCO[C@H](CN(C)Cc2ccncc2)[C@@H](C)CN([C@@H](C)CO)C(=O)c2cc(NC(=O)Nc3ccccc3)ccc2O1
→ 4.2	-3	-11	0.3
C[C@H](NC(=O)[C@@H]1[C@@H](CO)[C@@H]2Cn3c(cccc3=O)[C@@H]2N1CC1CCCCC1)c1ccccc1
→ 0.9	-7	-8	0.4
Cc1ccc(S(=O)(=O)N(C)C[C@@H]2OCCCC[C@@H](C)Oc3ccc(N(C)C)cc3C(=O)N([C@H](C)CO)C[C@@H]2C)cc1
→ 0.7	-2	-1	0.0
O=C(C1CCCC1)N1CC(=O)N2[C@H](C1)[C@@H](c1ccc(C#CCc3ccccc3)cc1)[C@@H]2CO
→ 1.1	-9	-33	18
O=C1CN(S(=O)(=O)Cc2ccccc2)C[C@@H]2[C@@H](c3ccc(C#Cc4cccc(F)c4)cc3)[C@H](CO)N12
→ -2.1	2	3	1.3
C[C@@H]1CN([C@@H](C)CO)C(=O)CCCn2nncc2CO[C@H]1CN(C)Cc1ccccc1O
→ -4.9	0	0	-0.8
CN(C)C(=O)c1cccc(-c2ccccc2[C@@H]2[C@@H](CO)N(C(=O)C3CCCC3)[C@H]2C#N)c1
→ -6.6	7	0	1.8
COc1ccc2c3c([nH]c2c1)[C@@H](CO)N(S(=O)(=O)c1ccc(C)cc1)CC31CCN(C(=O)Cc2cccnc2)CC1
→ -3.1	-3	-3	-2.9
COCCNC(=O)C[C@@H]1C[C@H]2c3cc(NC(=O)COC)ccc3O[C@H]2[C@@H](CO)O1
→ -2.7	0	9	0.6
CCNC(=O)[C@H]1[C@H](CO)[C@H]2Cn3c(ccc(C4=CCCCC4)c3=O)[C@@H]1N2CC
→ -1.1	-1	6	-2.8
Cc1ccc(-c2ccc([C@@H]3[C@@H](CO)N4C(=O)CN(C(=O)c5ccncc5)C[C@H]34)cc2)cc1
→ -0.1	1	3	-2.5
CN(C)C(=O)[C@H]1[C@H](CO)[C@H]2Cn3c(ccc(C4=CCCC4)c3=O)[C@@H]1N2CC1CCCC1
→ 1.0	1	1	2.7
CO[C@H]1CN(C)C(=O)c2cc(NC(=O)c3cnccn3)ccc2OC[C@H](C)N(C(=O)C2CC2)C[C@@H]1C
→ -2.8	1	0	-0.3
Cc1ccc(-c2ccccc2[C@H]2[C@@H](C#N)N(S(C)(=O)=O)[C@@H]2CO)cc1
→ -2.3	4	2	2.1
COc1cccc(C#Cc2ccc([C@H]3[C@@H](CO)N4C(=O)CN(C(C)=O)C[C@H]34)cc2)c1
→ -3.7	3	-2	0.3
O=C1CN(S(=O)(=O)c2ccccc2)C[C@@H]2[C@@H](c3ccc(C#CCc4ccccc4)cc3)[C@H](CO)N12
→ -0.6	1	12	0.0
Cc1ccc(S(=O)(=O)Nc2ccc3c(c2)C(=O)N([C@H](C)CO)C[C@H](C)[C@@H](CN(C)C(=O)CCC(F)(F)F)OCCCC[C@@H](C)O3)cc1
→ -3.8	3	12	-1.1
O=C(Cc1ccccn1)N1CC(=O)N2[C@@H](CO)[C@H](c3ccc(C#CC4CCCCC4)cc3)[C@@H]2C1
→ 7.0	4	-14	11
CC(=O)N1[C@@H]2Cn3c(ccc(C4=CCCC4)c3=O)[C@H]1[C@@H](C(=O)NCC1CC1)[C@@H]2CO
→ -2.5	3	0	-1.1
C[C@H](CO)N1C[C@H](C)[C@H](CN(C)C(=O)Nc2cccc3ccccc23)OCCCC[C@H](C)Oc2ccc(NS(=O)(=O)c3ccc(F)cc3)cc2C1=O
→ 0.3	-1	-8	-2.9
O=C(Nc1ccccc1)N1CC(=O)N2[C@@H](CO)[C@@H](c3ccc(C#CC4CC4)cc3)[C@@H]2C1
→ -0.8	-1	7	7.5
COc1cc(CN2CC3(CCN(C(=O)Nc4cccc(F)c4)CC3)c3c(n(C)c4cc(OC)ccc34)[C@@H]2CO)cc(OC)c1
→ -1.6	1	-3	1.0
CCS(=O)(=O)N(C)C[C@@H]1N[C@H](CO)[C@@H]1c1ccc(C#CC(C)C)cc1
→ -1.6	0	3	3.7
CCNC(=O)Nc1ccc2c(c1)C(=O)N(C)[C@H]1CC[C@@H](CC(=O)NCCOC)O[C@@H]1CO2
→ -1.4	1	-2	-2.1
C[C@@H]1CN([C@H](C)CO)C(=O)c2cc(NC(=O)Nc3cccc4ccccc34)ccc2O[C@@H]1CN(C)Cc1ccc2c(c1)OCO2
→ -1.9	-2	-11	9.3

Brought forward from above: five entries, followed by the next part.
The line under a structure holds: AF4-AF9 inh	rRNA inh HTS	rRNA inh HTS OD600	rRNA inh HTS RFP
O=C(Nc1ccccc1)N1CC(=O)N2[C@@H](CO)[C@@H](c3ccc(C#CC4CC4)cc3)[C@@H]2C1
→ -0.8	-1	7	7.5
COc1cc(CN2CC3(CCN(C(=O)Nc4cccc(F)c4)CC3)c3c(n(C)c4cc(OC)ccc34)[C@@H]2CO)cc(OC)c1
→ -1.6	1	-3	1.0
CCS(=O)(=O)N(C)C[C@@H]1N[C@H](CO)[C@@H]1c1ccc(C#CC(C)C)cc1
→ -1.6	0	3	3.7
CCNC(=O)Nc1ccc2c(c1)C(=O)N(C)[C@H]1CC[C@@H](CC(=O)NCCOC)O[C@@H]1CO2
→ -1.4	1	-2	-2.1
C[C@@H]1CN([C@H](C)CO)C(=O)c2cc(NC(=O)Nc3cccc4ccccc34)ccc2O[C@@H]1CN(C)Cc1ccc2c(c1)OCO2
→ -1.9	-2	-11	9.3
C[C@H]1CCCCO[C@@H](CN(C)S(=O)(=O)c2cn(C)cn2)[C@@H](C)CN([C@@H](C)CO)C(=O)c2cc(NC(=O)Nc3ccc(F)cc3)ccc2O1
→ 4.9	-2	-2	-1.5
CN1c2ccc(-c3ccc(C#N)cc3)cc2[C@@H]2[C@@H](CCN2C(=O)NC2CCCCC2)[C@H]1CO
→ -8.1	-11	-34	9.9
CCC(=O)N(C)C[C@H]1Oc2cc(-c3cncnc3)ccc2S(=O)(=O)N([C@@H](C)CO)C[C@@H]1C
→ 5.5	1	2	0.1
C/C=C/c1ccc(C2[C@H]3CNC[C@@H]2N3S(=O)(=O)c2cccc(OC)c2)cc1 (stereo partly specified)
→ -5.1&0.1	1&-5	-2&-4	-0.4&0.5
O=C(Cc1cccnc1)N1CC[C@H]2[C@H](CO)Nc3ccc(C#Cc4cccc(F)c4)cc3[C@H]21
→ 11	5	-5	15
N#C[C@H]1[C@H](c2ccccc2C2=CCCC2)[C@@H](CO)N1C(=O)CN1CCOCC1
→ -0.4	-2	3	-5.2
O=C(C[C@H]1C[C@@H]2c3cc(NC(=O)C4CCOCC4)ccc3O[C@@H]2[C@@H](CO)O1)NCC1CC1
→ -0.5	3	9	-0.8
COc1ccccc1C#Cc1ccc2c(c1)[C@H]1[C@H](CCN1C(=O)c1ccncc1)[C@@H](CO)N2
→ 51*	i	.	.
O=C1CNC[C@H]2[C@@H](c3ccc(C#CC4CCCCC4)cc3)[C@H](CO)N12
→ 5.1	7	-6	4.4
Cc1noc(C)c1NC(=O)Nc1ccc2c(c1)C(=O)N([C@@H](C)CO)C[C@H](C)[C@@H](CN(C)S(=O)(=O)c1ccc(F)cc1)OCCCC[C@@H](C)O2
→ -1.5	-1	-1	0.2
CCC(=O)N1Cc2cc(C(=O)N3CCN(C)CC3)nc(-c3cccc(-c4cccnc4)c3)c2[C@H]1CCO
→ -3.7	-3	6	0.7
CCNC(=O)Nc1ccc2c(c1)C(=O)N(C)[C@H]1CC[C@H](CC(=O)NCc3ccccc3F)O[C@@H]1CO2
→ -0.5	1	0	0.5
O=C(C1CCOCC1)N1CC(=O)N2[C@@H](CO)[C@@H](c3ccc(C#CC4CC4)cc3)[C@@H]2C1
→ 0.2	2	10	-3.3
C/C=C/c1ccc([C@@H]2[C@@H](CO)N3C(=O)CN(Cc4ccc(C(=O)OC)cc4)C[C@H]23)cc1
→ 5.5	3	3	0.0
C[C@@H]1CCCCO[C@@H](CN(C)S(=O)(=O)c2cn(C)cn2)[C@@H](C)CN([C@@H](C)CO)C(=O)c2cc(NC(=O)Nc3ccc(F)cc3)ccc2O1
→ 7.5	-1	2	-7.4

One compound at a time, from the list above. Values in the order: AF4-AF9 inh, rRNA inh HTS, rRNA inh HTS OD600, rRNA inh HTS RFP
`COc1ccccc1C#Cc1ccc2c(c1)[C@H]1[C@H](CCN1C(=O)c1ccncc1)[C@@H](CO)N2` across the screens: 51*, i, ., .
`C/C=C/c1ccc(C2[C@H]3CNC[C@@H]2N3S(=O)(=O)c2cccc(OC)c2)cc1` (stereo partly specified) across the screens: -5.1&0.1, 1&-5, -2&-4, -0.4&0.5
`CCC(=O)N(C)C[C@H]1Oc2cc(-c3cncnc3)ccc2S(=O)(=O)N([C@@H](C)CO)C[C@@H]1C` across the screens: 5.5, 1, 2, 0.1

(more compounds)
The line under a structure holds: AF4-AF9 inh	rRNA inh HTS	rRNA inh HTS OD600	rRNA inh HTS RFP
C/C=C/c1ccc([C@H]2[C@@H](CO)N(C(=O)NC(C)C)[C@@H]2CNC(C)=O)cc1
→ -2.1	0	1	-3.9
Fc1cccc(-c2ccc(C3[C@@H]4CN(Cc5ccccc5F)C[C@H]3N4)cc2)c1 (stereo partly specified)
→ 8.8&10	-59&-58	-79&-81	-14&-15
C[C@H]1CN([C@@H](C)CO)C(=O)c2c(c3ccccc3n2C)-c2ccccc2CO[C@@H]1CN(C)Cc1cccc(C(F)(F)F)c1
→ 5.3	-1	-5	0.5
CCCC#Cc1cnc2c(c1)C(=O)N([C@H](C)CO)C[C@H](C)[C@H](CN(C)Cc1ccccc1)O2
→ -1.5	2	-8	-1.0
C[C@H]1CN([C@@H](C)CO)S(=O)(=O)c2ccc(C#Cc3cccc(F)c3)cc2O[C@@H]1CN(C)C(=O)NC1CCCCC1
→ -1.3	-2	4	3.9
CC(=O)N1[C@@H]2Cn3c(ccc(/C=C/c4ccccc4)c3=O)[C@H]1[C@@H](C(=O)N1CCOCC1)[C@@H]2CO
→ -5.9	0	4	-3.8
CCS(=O)(=O)N[C@H]1C=C[C@@H](CC(=O)NC2Cc3ccccc3C2)O[C@@H]1CO
→ -1.3	0	-6	-0.5
Cc1nc(N2[C@H](CO)[C@H](c3ccccc3)[C@H]2CNCC2CCCC2)sc1C
→ 4.8	5	-7	-1.0
C[C@H](CO)N1C[C@H](C)[C@@H](CN(C)S(=O)(=O)c2ccc(F)cc2)OCCCC[C@H](C)Oc2ccc(NC(=O)Nc3ccc(C(F)(F)F)cc3)cc2C1=O
→ -6.5	-2	5	-8.5
COc1ccc(-c2ccc([C@H]3[C@H](CO)N4C(=O)CNC[C@@H]34)cc2)cc1
→ -1.4	3	12	-0.8
C[C@@H]1CN([C@H](C)CO)S(=O)(=O)c2ccc(C#CCN(C)C)cc2O[C@@H]1CN(C)Cc1ccccn1
→ -0.6	0	3	-0.2
COc1cccc(CN2C[C@@H]3N[C@H](C2)C3c2ccc(-c3ccc(C#N)cc3)cc2)c1 (stereo partly specified)
→ 5.0&6.1	-56&-55	-80&-78	-15&-14
O=C(C1CCCC1)N1CC(=O)N2[C@H](CO)[C@H](c3ccc(Br)cc3)[C@H]2C1
→ -3.6	0	11	-1.1
N#C[C@H]1[C@H](c2ccc(C#CC3CCCCC3)cc2)[C@@H](CO)N1C(=O)Nc1ccc(F)cc1
→ 4.2	5	-9	-2.7
O=C(C1CCCCC1)N1CC(=O)N2[C@H](C1)[C@@H](c1ccc(C#Cc3cccc(F)c3)cc1)[C@@H]2CO
→ -3.3	-14	-25	31
CNC[C@@H]1Oc2ccc(NS(=O)(=O)c3ccc(F)cc3)cc2CC(=O)N([C@H](C)CO)C[C@H]1C
→ -1.5	6	2	0.1
CN1C(=O)c2cc(NS(=O)(=O)c3cccc(F)c3)ccc2OC[C@H]2O[C@@H](CC(=O)N3CCc4ccccc4C3)CC[C@H]21
→ -1.8	-1	-9	1.4
COc1ccc(NC(=O)N2CC(=O)N3[C@H](CO)[C@H](c4ccc(C5=CCCC5)cc4)[C@@H]3C2)cc1
→ 3.6	-1	-7	-2.2
CCCN1[C@H](C(=O)N(C)C)[C@@H](CO)[C@@H]2Cn3c(ccc(C4=CCCCC4)c3=O)[C@@H]21
→ -1.5	4	7	1.4
O=C(c1ccc(F)cc1)N1CC(=O)N2[C@H](C1)[C@@H](c1ccc(-c3ccccc3)cc1)[C@@H]2CO
→ 0.7	0	-56	21

Bioassay records (PubChem)
